Bioassay records from PubChem BioAssay.
GLA inh pH 4.5: qHTS Assay for Inhibitors of Human alpha-Galactosidase at pH 4.5; purified enzyme, 4-MU-alpha-Gal fluorescence, pH 4.5; Alpha-galactosidase A (Homo sapiens), P06280; 230,000 tested, under 10 active; activity change, negative = inhibition, % at 105 µM; inconclusive = small, poorly fitted or top-dose-only inhibition, or a rising curve; inactive = flat fitted curve, though single readings scatter; no compound was filed as active;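 further: 0% = full activity with enzyme and -100% = basal without enzyme; dose as in the result columns while the protocol names 77 µM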
Rango release inh: qHTS Assay for Inhibitors of RanGTP induced Rango (Ran-regulated importin-beta cargo) - Importin beta complex dissociation; Snurportin-1 (Homo sapiens) + GTP-binding nuclear protein Ran (Homo sapiens) + Importin …; Biochemical FRET Rango-importin beta, RanGTP-induced dissociation; Potency, µM (series often up to 46.1 µM), without a hit: at the highest dose activity change, negative = inhibition; hit rate 0.071% among 340,000; active means falling FRET ratio curve, often poorly fitted, with flat reads before Ran was added; inconclusive means other falling curves, or compound fluorescence or quenching; inactive means flat or rising ratio curve;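 further: potency means the concentration at half of the fitted maximal effect; % of control where 0% means no effect; nearly all actives have a fitted effect of over 45% in size; -100% = wells without RanGTP and RCC1; the record marks most hits as doubtful in a second field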
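Rango FRET biosensor (snurportin-1 IBB flanked by N-terminal EYFP and C-terminal CFP10) at 0.1 uM, with 0.25 uM importin beta in PBS, 1mM DTT, 0.02% Tween-20, 0.1% BSA. 0.6 uM Ran, 2mM GTP and 0.2 uM RCC1 were then added for 45 min at room temperature. Inhibition read as loss of FRET rise.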
Rango complex inh: qHTS Assay for Inhibitors of Rango (Ran-regulated importin-beta cargo) - Importin beta complex formation; Importin subunit beta-1 (Homo sapiens), Q14974; Rango CFP/YFP FRET sensor + importin beta, 45 min; Potency, µM (titrated, usually from 92.2 µM), for inactives: at the highest dose inhibition of complex formation; hit rate 0.031% among 340,000; active = rising FRET ratio curve, often small or poorly fitted; inconclusive = mostly compound fluorescence or quenching in the first reads; inactive = flat curves in all reads;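 further: potency means the concentration at half of the fitted maximal effect; 0% = DMSO wells and 100% = buffer wells lacking importin beta; nearly all actives have a fitted effect of over 15% in size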
Target sequence (Q14974 whole entry, looked up): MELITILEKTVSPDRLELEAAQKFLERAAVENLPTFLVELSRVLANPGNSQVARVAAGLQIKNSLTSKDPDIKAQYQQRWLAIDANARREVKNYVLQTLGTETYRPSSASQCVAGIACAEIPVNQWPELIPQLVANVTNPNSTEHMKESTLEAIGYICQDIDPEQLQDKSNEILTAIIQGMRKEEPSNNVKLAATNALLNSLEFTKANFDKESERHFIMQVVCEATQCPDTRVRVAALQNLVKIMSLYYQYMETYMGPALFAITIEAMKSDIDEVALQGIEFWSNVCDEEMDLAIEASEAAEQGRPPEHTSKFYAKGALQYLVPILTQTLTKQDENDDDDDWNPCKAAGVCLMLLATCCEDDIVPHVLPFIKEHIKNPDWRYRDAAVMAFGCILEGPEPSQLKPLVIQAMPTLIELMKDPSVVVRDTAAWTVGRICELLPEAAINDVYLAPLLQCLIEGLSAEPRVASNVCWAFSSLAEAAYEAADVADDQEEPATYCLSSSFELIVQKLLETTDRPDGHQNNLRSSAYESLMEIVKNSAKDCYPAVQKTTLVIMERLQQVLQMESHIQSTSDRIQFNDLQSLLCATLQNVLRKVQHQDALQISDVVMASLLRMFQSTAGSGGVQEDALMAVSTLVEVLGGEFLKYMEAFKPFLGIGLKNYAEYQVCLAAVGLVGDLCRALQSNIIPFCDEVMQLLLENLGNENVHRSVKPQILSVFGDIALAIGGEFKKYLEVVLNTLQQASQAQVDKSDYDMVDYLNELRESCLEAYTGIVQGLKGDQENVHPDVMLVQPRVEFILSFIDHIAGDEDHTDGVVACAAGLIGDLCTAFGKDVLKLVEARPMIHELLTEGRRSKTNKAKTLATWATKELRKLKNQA
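Inhibition scored from the CFP 486 nm/YFP 530 nm FRET ratio 45 min after adding 0.125 microM importin beta to 50 nM Rango biosensor preincubated 5 min with compound (room temperature, PBS with DTT, Tween-20, BSA). No-importin wells as positive control.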
miR-21 FLuc: qHTS Assay for Modulators of miRNAs and/orActivators of miR-21 | HeLa miR-21 FLuc reporter, luciferase, 48 h | Potency, µM (series often up to 38.3 µM), without a hit: at the highest dose reporter change, positive = more light | 340,000 tested, under 10 active | AID 2288, 2010; active = well fitted rising curve with a large enough effect; inconclusive = small, poorly fitted or top-dose-only effect; inactive = no such curve, though single readings can be large or run the other way;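 further: % of control where 0% means no effect; miR-21 action dims this reporter so a rising signal means less miR-21 action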
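HeLa cells endogenously expressing miR-21, stably carrying CMV-driven firefly luciferase with a downstream miR-21 binding site, 2000 cells/well. Titrations up to approximately 40 uM, 48 hours; luciferase luminescence read.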
* = called active by the depositor; & = joins results of further samples. A portion of the library; rates above refer to the full screens.

`CC12CN3CC(C)(CN(C1)C3c1ccncc1)C2=O` (configuration not stated) gave GLA inh pH 4.5 2, Rango release inh 8%, Rango complex inh 4.5% and miR-21 FLuc 1%.
COc1ccc2[nH]cc(CCN)c2c1 was read as GLA inh pH 4.5 3&-3&-1, Rango release inh 1%, Rango complex inh -0.5% and miR-21 FLuc -1%.
Screening N#CC(C#N)=Cc1ccc(N2CCOCC2)cc1 returned GLA inh pH 4.5 0, Rango release inh inconclusive, Rango complex inh inconclusive and miR-21 FLuc -2%.
`CCc1ccc2nc(N3CCC(C(=O)N4CCC5(CC4)OCCO5)CC3)sc2c1` gave GLA inh pH 4.5 -28, Rango release inh 16%, Rango complex inh 1.2% and miR-21 FLuc -3%.
Screening COc1cccc(CNC(=O)CSc2ccc(-c3ccco3)nn2)c1 returned GLA inh pH 4.5 1, Rango release inh 2%, Rango complex inh inconclusive and miR-21 FLuc 1%.
`O=C(NCc1cccnc1)Nc1ccccc1Cl` gave Rango release inh 8%, Rango complex inh -3.0% and miR-21 FLuc -6%.
For C[n+]1c(-c2ccccc2)cc(CCCCc2cc(-c3ccccc3)[n+](C)c(-c3ccccc3)c2)cc1-c1ccccc1 the results were GLA inh pH 4.5 -30, Rango release inh 5%, Rango complex inh -0.4% and miR-21 FLuc inconclusive.
Screening CC(=O)OC1CC[C@]2(C#N)[C@H]3CC[C@]4(C)[C@H](C5C=CC(=O)O5)CCC4(O)C3CCC2(O)C1 (some centres not stated) returned Rango release inh 20%, Rango complex inh 0.1% and miR-21 FLuc inconclusive.
CCc1c(-c2ccccc2)nc2ccccc2c1C(=O)N1CCC2(CC1)OCCO2 was read as Rango release inh -6%, Rango complex inh -0.4% and miR-21 FLuc -7%.
Screening CCN1C[C@]2(COC)CC[C@H](OC)[C@@]34C1[C@]1(OCO[C@@]15C[C@H](OC)[C@H]1C[C@@H]3[C@@H]5[C@H]1OC)[C@@H](O)[C@H]24 returned Rango release inh 14% and Rango complex inh -0.3%.
Screening O=C(O)C1Sc2[nH]c(=O)sc2C2c3cc(Cl)ccc3OC(=O)C12 (configuration not stated) returned GLA inh pH 4.5 -3, Rango release inh inconclusive, Rango complex inh inconclusive and miR-21 FLuc 4%.
CCOC(=O)C1CCCCC12C(C#N)=C(N)Oc1n[nH]c(C)c12 (configuration not stated) was read as GLA inh pH 4.5 -2, Rango release inh -9%, Rango complex inh inconclusive and miR-21 FLuc 1%.
For CN1CCc2nc3sc(C(=O)NC(C)(C)C)c(N)c3cc2C1 the results were GLA inh pH 4.5 -27, Rango release inh 1%, Rango complex inh 0.0% and miR-21 FLuc -18%.
COCCN(C(=O)COC(=O)Cc1ccccc1)c1c(N)n(Cc2ccccc2)c(=O)[nH]c1=O was read as Rango release inh -4% and Rango complex inh -2.0%.
For C1=C(c2ccccc2)CCNC1 the results were GLA inh pH 4.5 -9, Rango release inh 2%, Rango complex inh 1.8% and miR-21 FLuc -1%.
CCn1c(O)c(C=NCCc2c[nH]c3ccccc23)c(=O)[nH]c1=O was read as GLA inh pH 4.5 0, Rango release inh -8%, Rango complex inh -1.9% and miR-21 FLuc -4%.
`Cc1ccc2nc(N3CCC(C(=O)N4CCC5(CC4)OCCO5)CC3)sc2c1` gave GLA inh pH 4.5 -18, Rango release inh -8%, Rango complex inh 0.1% and miR-21 FLuc -17%.
For C=CC1CN2CCC1CC2[C@@H](OC(=O)c1ccc(OC)cc1)c1ccnc2ccccc12 (some centres not stated) the results were Rango release inh 11%, Rango complex inh inconclusive and miR-21 FLuc -5%.
CCc1ccc(N2C(=O)NC(=O)/C(=C/c3cccn3CCOc3ccc(C(C)CC)cc3)C2=O)cc1 (configuration not stated) was read as GLA inh pH 4.5 3, Rango release inh 3%, Rango complex inh 2.9% and miR-21 FLuc -42%.
Cc1cc(=O)n(-c2ccccc2)n1-c1ccccc1 was read as GLA inh pH 4.5 2, Rango release inh -4%, Rango complex inh -1.9% and miR-21 FLuc -2%.

The final six entries of the part before come first, to join the parts:
For C1=C(c2ccccc2)CCNC1 the results were GLA inh pH 4.5 -9, Rango release inh 2%, Rango complex inh 1.8% and miR-21 FLuc -1%.
CCn1c(O)c(C=NCCc2c[nH]c3ccccc23)c(=O)[nH]c1=O was read as GLA inh pH 4.5 0, Rango release inh -8%, Rango complex inh -1.9% and miR-21 FLuc -4%.
`Cc1ccc2nc(N3CCC(C(=O)N4CCC5(CC4)OCCO5)CC3)sc2c1` gave GLA inh pH 4.5 -18, Rango release inh -8%, Rango complex inh 0.1% and miR-21 FLuc -17%.
For C=CC1CN2CCC1CC2[C@@H](OC(=O)c1ccc(OC)cc1)c1ccnc2ccccc12 (some centres not stated) the results were Rango release inh 11%, Rango complex inh inconclusive and miR-21 FLuc -5%.
CCc1ccc(N2C(=O)NC(=O)/C(=C/c3cccn3CCOc3ccc(C(C)CC)cc3)C2=O)cc1 (configuration not stated) was read as GLA inh pH 4.5 3, Rango release inh 3%, Rango complex inh 2.9% and miR-21 FLuc -42%.
Cc1cc(=O)n(-c2ccccc2)n1-c1ccccc1 was read as GLA inh pH 4.5 2, Rango release inh -4%, Rango complex inh -1.9% and miR-21 FLuc -2%.
CC1=[N+]([O-])C2(N)CCc3nonc3C2(O)C1 (configuration not stated) was read as GLA inh pH 4.5 -6, Rango release inh 0%, Rango complex inh -1.0% and miR-21 FLuc 0%.
For CCOP(=O)(OCC)C(NC(=O)c1ccc(C)cc1)C(Cl)(Cl)Cl (configuration not stated) the results were GLA inh pH 4.5 -1, Rango release inh 1%, Rango complex inh -3.4% and miR-21 FLuc 3%.
`CN1CC(C(=O)c2ccc(Cl)cc2)C(c2ccccc2F)C1` (configuration not stated) gave GLA inh pH 4.5 2, Rango release inh 25%, Rango complex inh 2.7% and miR-21 FLuc -4%.
CCN(CC)C(=O)c1ccc(NC(=O)c2ccc(-c3nn(C)c(=O)c4ccccc34)cc2)cc1 was read as GLA inh pH 4.5 8, Rango release inh -18%, Rango complex inh 0.4% and miR-21 FLuc 3%&0%.
`CCOC(=O)c1c(C)n(C(C)C)c2ccc(OC)cc12` gave GLA inh pH 4.5 -1, Rango release inh 1%, Rango complex inh 0.0% and miR-21 FLuc -7%.
`CC(C)[N+](C)(CCC(C(N)=O)(c1ccccc1)c1ccccc1)C(C)C` gave GLA inh pH 4.5 2&-3&1, Rango release inh 4%, Rango complex inh -0.8% and miR-21 FLuc 5%.
`N#Cc1ccccc1Cn1cc(C(=O)c2ccco2)c2ccccc21` gave GLA inh pH 4.5 inconclusive, Rango release inh -14%, Rango complex inh 7.0% and miR-21 FLuc -9%.
Screening c1ccc(CCN2CCC(N3CCN(c4ccccc4)CC3)CC2)cc1 returned GLA inh pH 4.5 2, Rango release inh -3%, Rango complex inh -1.8% and miR-21 FLuc -2%.
CCN(CC)c1ccc(/C=C/[N+](=O)[O-])cc1 was read as GLA inh pH 4.5 1, Rango release inh -18%, Rango complex inh 5.4% and miR-21 FLuc 0%.
Screening CNC(=O)Oc1ccc(N(C)C)cc1C(C)C returned GLA inh pH 4.5 -9, Rango release inh 21%, Rango complex inh 3.8% and miR-21 FLuc 1%.
Screening Cc1cc(OCCN2CC2)c2ccccc2n1 returned GLA inh pH 4.5 -2 and miR-21 FLuc -7%.
COC(=O)C1=C(c2ccc(F)cc2OCc2ccccc2)C[C@@H]2CC[C@H]1N2C(=O)NCc1ccco1 was read as Rango release inh -1% and Rango complex inh -3.1%.
`Clc1cccc(C2NCCc3[nH]cnc32)c1` (configuration not stated) gave GLA inh pH 4.5 -14, Rango release inh -2%, Rango complex inh -2.2% and miR-21 FLuc 1%.
For CCOc1cc(CNCCc2c[nH]c3ccccc23)cc(Cl)c1OCC the results were GLA inh pH 4.5 -3, Rango release inh -7%, Rango complex inh 0.9% and miR-21 FLuc 9%.
`CC1=CC(C)CC(C)OC(=O)CC(c2ccc(O)cc2)NC(=O)C(Cc2c(Br)[nH]c3ccccc23)N(C)C(=O)C(C)NC(=O)C(C)C1` (configuration not stated) gave Rango release inh 1% and Rango complex inh -0.7%.
`CNC(=S)N1CCN(CCN=Cc2c(O)n(-c3ccc(C)cc3)c(=S)[nH]c2=O)CC1` gave Rango release inh -4%, Rango complex inh -4.6% and miR-21 FLuc 3%.
CC(C)CCOP(N)(=O)Oc1ccccc1Cl (configuration not stated) was read as Rango release inh -2%, Rango complex inh -1.3% and miR-21 FLuc 3%.
`CCOc1ccc(-n2c(CC)nc3ccccc3c2=O)cc1` gave GLA inh pH 4.5 5, Rango release inh -17%, Rango complex inh -1.5% and miR-21 FLuc -11%.
Screening CN1CCCN(C(=O)COc2ccc(F)cc2Cl)CC1 returned Rango release inh -2%, Rango complex inh 0.1% and miR-21 FLuc -5%.
`CN(C)c1ccc(/C=C2\CC3C4CC=C5CC(O)CCC5(C)C4CCC3(C)C2=O)cc1` (configuration not stated) gave GLA inh pH 4.5 -2, Rango release inh inconclusive, Rango complex inh inconclusive and miR-21 FLuc -7%.

3 compounds drawn at random from the list so far, as already listed:
`Clc1cccc(C2NCCc3[nH]cnc32)c1` (configuration not stated) gave GLA inh pH 4.5 -14, Rango release inh -2%, Rango complex inh -2.2% and miR-21 FLuc 1%.
For CCOP(=O)(OCC)C(NC(=O)c1ccc(C)cc1)C(Cl)(Cl)Cl (configuration not stated) the results were GLA inh pH 4.5 -1, Rango release inh 1%, Rango complex inh -3.4% and miR-21 FLuc 3%.
For CCOc1cc(CNCCc2c[nH]c3ccccc23)cc(Cl)c1OCC the results were GLA inh pH 4.5 -3, Rango release inh -7%, Rango complex inh 0.9% and miR-21 FLuc 9%.

Following part.
COc1ccc(Oc2cc(NC(=O)c3nn(C)cc3[N+](=O)[O-])cc([N+](=O)[O-])c2)cc1 was read as GLA inh pH 4.5 -4, Rango release inh 10%, Rango complex inh 2.2% and miR-21 FLuc -4%.
Screening CC[C@H]1CN2CCC1C[C@@H]2[C@H](O)c1ccnc2ccc(OC)cc12 (some centres not stated) returned Rango release inh 6% and Rango complex inh 0.0%.
`Cc1ccccc1CN1CCN(c2ccc(Cl)cc2)CC1` gave GLA inh pH 4.5 -7, Rango release inh 1%, Rango complex inh 4.2% and miR-21 FLuc 4%.
COc1cccc(CN2CCN(Cc3cccc(F)c3)CC2)c1 was read as Rango release inh 0%, Rango complex inh -0.9% and miR-21 FLuc 2%.
For CC12CCC(O)CC1CCC1C2CCC2(C)C(C(=O)CC(O)C(F)(F)F)CCC12 (configuration not stated) the results were Rango release inh -9% and Rango complex inh -2.6%.
`Cc1cc(OCC(=O)Nc2c(C)n(C)n(-c3ccccc3)c2=O)c2c3c(c(=O)oc2c1)CCC3` gave GLA inh pH 4.5 4 and miR-21 FLuc 1%.
Cc1cc(OCC(=O)NCc2cccnc2)c2c3c(c(=O)oc2c1)CCCC3 was read as Rango release inh -5%, Rango complex inh -0.4% and miR-21 FLuc 0%.
For CCn1nc(/C=C/c2ccccc2)nc2c(=O)n(C)c(=O)nc1-2 the results were GLA inh pH 4.5 5, Rango release inh -14%, Rango complex inh 2.6% and miR-21 FLuc -17%.
